GIV Gai3 FP: inhibitors of GIV GBA-motif binding to rat Galpha-i3. Galpha-i3/FITC-GIV peptide fluorescence polarization, 90 min; active compounds read low; scaled: aluminum fluoride 0%, vehicle 100%. actives 0.42% (n = 210,000). percent of control (FP), % (concentration not given with the values);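 active = replicate mean at 85% of control or lower, very high polarization wells dropped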;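 also: wells of about 15 µL received 100 nL stock; the first replicate is given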
Target sequence (P08753 whole entry, looked up): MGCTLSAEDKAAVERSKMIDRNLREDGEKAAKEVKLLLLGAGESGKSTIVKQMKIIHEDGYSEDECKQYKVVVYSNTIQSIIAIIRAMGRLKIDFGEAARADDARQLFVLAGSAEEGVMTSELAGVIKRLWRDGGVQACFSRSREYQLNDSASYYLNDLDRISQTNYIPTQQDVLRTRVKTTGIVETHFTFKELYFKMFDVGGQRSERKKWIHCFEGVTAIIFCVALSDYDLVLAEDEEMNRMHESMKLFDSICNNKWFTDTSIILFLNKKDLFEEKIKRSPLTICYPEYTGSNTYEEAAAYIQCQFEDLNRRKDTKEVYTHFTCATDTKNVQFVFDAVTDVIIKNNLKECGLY
Sa growth 42C: S. aureus growth inhibition. S. aureus RN4220 growth, OD600, 20 h, 42 °C; active compounds read low. relative growth, % (no concentration beside the values). actives 0.53% (n = 170,000);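 active = growth at 42 °C up to 50% and 20 or more points under that at 30 °C, or under 10% at both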;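 also: 300 nL library stock went into each well; scaled to the means of positive and negative controls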
HCMV UL50-53 inh: inhibitors of HCMV UL50-UL53 nuclear egress complex interaction; AID 1918969; actives 0.15% (n = 190,000); inhibition, % (no concentration beside the values); HTRF UL50-UL53 interaction, normalized percent inhibition;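 active = both replicates at 50% or more, plus weaker picks with an unusually low signal ratio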;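 also: stock transfer was 100 nL into about 20 µL; 0% = negative control wells and 100% = wells with untagged competitor protein; inactives centre near -12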
Sa growth 42C second temp: recorded beside Sa growth 42C, whose call it bears; relative growth, %; measured here: growth at 30 °C;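 optical density after 20 h as mean of two plates; 100% = untreated growth and lower means inhibition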
* hit, by the source's call; nt = no result given; & = joins results of further samples.

1) S=C(Nc1ccccc1)N1CCC(c2ccccc2)=N1
2) CC(C)c1ccccc1NC(=O)CC(C)(C)C
3) CCCN(Cc1nnc(-c2ccco2)o1)C(=O)Cc1n[nH]c(=O)c2ccccc12
4) O=C(Nc1nc2ccccc2[nH]1)C1CCCN(C(=O)c2ccc(Cl)cc2)C1 (stereo unspecified)
5) CCOCCCNC(=O)Nc1cc(C(=O)NCc2ccc(C(C)C)cc2)ccc1N1CCCC1
6) COc1ccc(C(=O)c2cnc3ccccn23)cc1Cl
7) O=C(CCN1CCN(C(c2ccccc2)c2ccccc2)CC1)N/N=C/c1cccnc1
8) COc1cc(C(CC#N)CC#N)cc(OC)c1OC
assay / entry,1,2,3,4,5,6,7,8
GIV Gai3 FP,99,92,nt,nt,100,104,102,109
Sa growth 42C,75,90,95,83,71,108,93,104
Sa growth 42C second temp,100,105,99,87,87,95,88,95
HCMV UL50-53 inh,nt,-31,-10,-19,nt,-8,-44,-4

9) CCOc1ccccc1C(=O)NCc1ccc2c(c1)CCN2C(=O)c1ccccc1
10) CCOC(=O)c1c(C)n(-c2ccc(OC)cc2)c2ccc(OC)cc12
11) O=C(Nc1ccc2nc(SCC(=O)N3CCc4ccccc43)sc2c1)c1ccccc1Cl
12) Brc1ccc(OCc2nn3c(-c4cccnc4)nnc3s2)cc1
13) COc1ccc(CCNC(=O)c2cc3c(-c4ccc(OC)c(OC)c4)nn(C)c3s2)cc1OC
14) Cc1ccc(N(C)S(=O)(=O)c2ccc3[nH]c4c(c3c2)CCCC4)cc1
15) Cc1cc(NC(=O)CN2C(=O)S/C(=C\c3ccccc3)C2=O)no1
16) Cc1ccc(NC(=O)N2CCN(Cc3nc(-c4ccccc4)oc3C)CC2)cc1
assay / entry,9,10,11,12,13,14,15,16
GIV Gai3 FP,105,105,nt,108,112,110,113,101
Sa growth 42C,99,102,93,nt,110,104,98,nt
Sa growth 42C second temp,52,95,75,nt,66,107,92,nt
HCMV UL50-53 inh,nt,nt,-8,14,0,nt,-5,7

17) CCCN(CCC)C(=O)Cn1c(=O)n(-c2ccc(OC)cc2OC)c(=O)c2c3c(sc21)CCC3
18) COCC(C)n1c(COc2ccccc2F)nnc1SCC(C)C (stereo unspecified)
19) CCOC(=O)c1ccc(NC(=O)CCS(=O)(=O)c2ccc(C)cc2)cc1
20) CN(C)C(=O)c1ccc(N(C)S(=O)(=O)c2ccccc2)cc1
21) CCOC(=O)c1cc2n(n1)C(C(F)(F)C(F)(F)F)CC(C)N2 (stereo unspecified)
22) CC1(C)C(=O)C2(C(=O)NCc3ccccc3)CCC1C2 (stereo unspecified)
23) COc1cc(-c2ccno2)ccc1S(=O)(=O)N1CCN(c2cccc(Cl)c2)CC1
24) N=c1nc(N)nc2n1NC(c1ccc(F)cc1)=CS2
assay / entry,17,18,19,20,21,22,23,24
GIV Gai3 FP,106,nt,108,104,112,102,102,96
Sa growth 42C,107,105,119,112,105,103,104,113
Sa growth 42C second temp,93,98,91,93,105,101,55,73
HCMV UL50-53 inh,2,8,nt,-24,-9,-12,nt,-2

Arranged by count of non-hydrogen atoms (high to low): eleven of the compounds above.
17) CCCN(CCC)C(=O)Cn1c(=O)n(-c2ccc(OC)cc2OC)c(=O)c2c3c(sc21)CCC3
11) O=C(Nc1ccc2nc(SCC(=O)N3CCc4ccccc43)sc2c1)c1ccccc1Cl
9) CCOc1ccccc1C(=O)NCc1ccc2c(c1)CCN2C(=O)c1ccccc1
16) Cc1ccc(NC(=O)N2CCN(Cc3nc(-c4ccccc4)oc3C)CC2)cc1
19) CCOC(=O)c1ccc(NC(=O)CCS(=O)(=O)c2ccc(C)cc2)cc1
14) Cc1ccc(N(C)S(=O)(=O)c2ccc3[nH]c4c(c3c2)CCCC4)cc1
18) COCC(C)n1c(COc2ccccc2F)nnc1SCC(C)C (stereo unspecified)
12) Brc1ccc(OCc2nn3c(-c4cccnc4)nnc3s2)cc1
21) CCOC(=O)c1cc2n(n1)C(C(F)(F)C(F)(F)F)CC(C)N2 (stereo unspecified)
22) CC1(C)C(=O)C2(C(=O)NCc3ccccc3)CCC1C2 (stereo unspecified)
assay / entry,17,11,9,16,19,14,18,12,21,22
GIV Gai3 FP,106,nt,105,101,108,110,nt,108,112,102
Sa growth 42C,107,93,99,nt,119,104,105,nt,105,103
Sa growth 42C second temp,93,75,52,nt,91,107,98,nt,105,101
HCMV UL50-53 inh,2,-8,nt,7,nt,nt,8,14,-9,-12

24) N=c1nc(N)nc2n1NC(c1ccc(F)cc1)=CS2
assay / entry,24
GIV Gai3 FP,96
Sa growth 42C,113
Sa growth 42C second temp,73
HCMV UL50-53 inh,-2

Other structures:
25) CS(=O)(=O)N(Cc1nnc(SCC(=O)N2CCCC2)n1-c1ccccc1)c1ccc(F)cc1
26) CSc1nnc2c(n1)OC1(CCCCC1)Nc1ccccc1-2
27) O=c1oc2cc(O)ccc2c(-c2ccccc2)c1-c1ccccc1
28) Cc1nc2ccccn2c1-c1nnco1
29) CNC(=S)N(Cc1ccc2c(c1)OCO2)C1CCCC1
30) COC(=O)c1ccccc1NC(=O)CCCN1C(=O)C(c2ccccc2)Oc2cccnc21 (stereo unspecified)
31) COC(=O)c1ccc2c(c1)N(Cc1cc(C)ccc1C)C(=O)c1ccccc1S2
32) Cc1ccc(O)c(NC(=O)C2CC(c3ccc(Cl)cc3)=NO2)c1 (stereo unspecified)
assay / entry,25,26,27,28,29,30,31,32
GIV Gai3 FP,95,107,nt,nt,nt,101,104,101
Sa growth 42C,nt,nt,80,123,95,105,85,86
Sa growth 42C second temp,nt,nt,93,84,80,81,89,79
HCMV UL50-53 inh,3,-6,-11,-39,-2,nt,nt,-32

33) CCc1ccc(N2C(=O)C3C4CCCC4=C4CCCC4C3C2=O)cc1 (stereo unspecified)
34) Cc1cccc(N=Cc2cccc(O)c2)c1
35) N#CC1(c2ccccc2C2(C#N)CC2)CC1
36) CCC1(C)CC(=O)c2c(ccc3oc(C(=O)O)c(C)c23)O1 (stereo unspecified)
37) COc1ccc(N2CCN(S(=O)(=O)c3ccc4c(c3)CC(C)N4C(C)=O)CC2)cc1 (stereo unspecified)
38) CC(C)(C)c1cc(NC(=O)c2ccc(C#N)cc2)on1
39) c1coc(-c2nc3ccc4ccccc4c3c3c2CCCC3)c1
40) Cc1nn(CCCC(=O)Nc2cccc(Cl)c2)c(=O)c2nn(-c3ccccc3)c(C)c12
assay / entry,33,34,35,36,37,38,39,40
GIV Gai3 FP,103,120,101,109,107,nt,104,103
Sa growth 42C,168,108,126,91,106,108,56,nt
Sa growth 42C second temp,109,107,71,94,82,89,61,nt
HCMV UL50-53 inh,-17,4,-8,-39,nt,-32,nt,-6

Among those listed so far, 3 have a furan ring, fused or not.
3) CCCN(Cc1nnc(-c2ccco2)o1)C(=O)Cc1n[nH]c(=O)c2ccccc12
36) CCC1(C)CC(=O)c2c(ccc3oc(C(=O)O)c(C)c23)O1 (stereo unspecified)
39) c1coc(-c2nc3ccc4ccccc4c3c3c2CCCC3)c1
assay / entry,3,36,39
GIV Gai3 FP,nt,109,104
Sa growth 42C,95,91,56
Sa growth 42C second temp,99,94,61
HCMV UL50-53 inh,-10,-39,nt

(next part)
41) Cc1cc(C)c(C#N)c(SC(F)F)n1
42) COc1ccccc1NC(=O)CSc1oc(-c2cccs2)nc1S(=O)(=O)c1ccc(Br)cc1
43) COc1cc2c(C#N)c(OC)nc(N)c2c(N)n1
44) Cn1nc(C(=O)Nc2cc(C(F)(F)F)ccc2N2CCOCC2)c2ccccc2c1=O
45) COC(=O)c1ccccc1NC(=O)NC1CCCCC1
46) COc1cccc(C(=O)CC(C#N)c2ccc(F)cc2)c1 (stereo unspecified)
47) Cc1cc(C)cc(OC(C)C(=O)NCCCn2ccnc2)c1 (stereo unspecified)
48) Cc1nc(N2CCCCC2)[nH]c(=O)c1CCC(C)C
assay / entry,41,42,43,44,45,46,47,48
GIV Gai3 FP,nt,107,nt,nt,106,105,103,110
Sa growth 42C,102,83,92,75,111,nt,89,nt
Sa growth 42C second temp,94,87,85,20,69,nt,75,nt
HCMV UL50-53 inh,-25,-11,2,-10,nt,-18,nt,-10

49) Cn1c(=O)n(C)c2cc(N3CCOCC3)c(NS(=O)(=O)c3ccc4c(c3)CCCC4)cc21
50) CC1(C)CC(=O)C2=C(C1)Nc1ncnn1C2c1ccccc1 (stereo unspecified)
51) CCOc1ccccc1N1CCN(C(=O)c2cc3c(s2)CCC3)CC1
52) CCOc1ccc(-c2n[nH]c3c2cnc2ccc(F)cc23)cc1
53) CCc1ccccc1NS(=O)(=O)c1ccc2[nH]cc(C(=O)NC3CCCC3)c(=O)c2c1
54) CCOC(=O)/C(C#N)=C/c1sccc1C
55) COC(=O)c1c(C)nn(C(=O)c2ccc(Cl)cc2)c1-c1snnc1C
56) Cc1noc(C)c1-c1nnc(-c2cccc(C(F)(F)F)c2)o1
assay / entry,49,50,51,52,53,54,55,56
GIV Gai3 FP,103,106,nt,99,104,107,105,102
Sa growth 42C,nt,104,84,nt,109,99,90,99
Sa growth 42C second temp,nt,103,94,nt,53,86,82,82
HCMV UL50-53 inh,-20,4,-3,-25,6,-103,-12,-24

57) O=C(CSc1nncn1-c1ccccc1)CSc1nncn1-c1ccccc1
58) CCc1ccc(NC(=O)c2ccc3c(O)c(S(=O)(=O)c4ccccc4)c(=O)[nH]c3c2)cc1
59) O=C(CCCSc1nc2ccccc2[nH]1)NC1=NCCS1
60) C/C(=N\NC(=S)Nc1ccccc1C)c1ccc(O)cc1
61) Cc1cnc(NC(=O)c2ccccc2C(F)(F)F)s1
62) COc1ccc(CNC(=O)c2ccc(-n3c(=O)c(=O)n(Cc4ccccc4)c4cccnc43)cc2)cc1
63) COc1cc(/C=C2/C(=O)NC(=O)N(c3ccc(C)cc3)C2=O)cc(Br)c1OC
64) CCN(CCN(C)C)C(=O)Cn1nc(Cc2ccncc2)c2ccccc2c1=O
assay / entry,57,58,59,60,61,62,63,64
GIV Gai3 FP,nt,104,nt,nt,nt,104,107,107
Sa growth 42C,97,110,89,64,104,nt,nt,113
Sa growth 42C second temp,96,84,91,44,87,nt,nt,90
HCMV UL50-53 inh,-14,nt,-8,-26,-11,-17,-17,-15

65) O=C1CCCCCN1CP(=O)(O)CN1CCCCC1
66) CCOc1ncccc1C(=O)OCC(=O)Nc1ccc(Br)c(C)c1
67) CC(=O)N(O)CCCCCNC(=O)CCC(=O)N(O)CCCCCNC(=O)CCC(=O)N(O)CCCCCN
68) Cc1cc(=O)oc2cc(OC(C)C(=O)Nc3ccccc3)ccc12 (stereo unspecified)
69) NC(=O)c1ccc(NC(=O)COC(=O)/C=C/c2ccc(Cl)cc2)cc1
70) O=C(OCC1CC(c2ccccc2)=NO1)c1ccc2ccccc2n1 (stereo unspecified)
71) Cc1cccc(C)c1NCc1cc(=O)n2[nH]c(-c3ccc(C(C)(C)C)cc3)nc2n1
72) CC1CCc2onc(C(=O)N(C)c3ccccc3)c2C1 (stereo unspecified)
assay / entry,65,66,67,68,69,70,71,72
GIV Gai3 FP,100,nt,nt,101,nt,105,97,99
Sa growth 42C,101,109,92,119,122,98,nt,103
Sa growth 42C second temp,94,88,88,46,92,86,nt,90
HCMV UL50-53 inh,nt,3,-10&-38&-1,-6,-19,31,-16,-42

73) CCN(c1ccc(OC)cc1)S(=O)(=O)c1ccc2[nH]c(=O)ccc2c1
74) CC(C)CC(C(=O)c1ccccc1)c1ccccc1 (stereo unspecified)
75) Cc1ccc(NC(=O)c2sc3nc4n(c(=O)c3c2C)CCCCC4)c(Br)c1
76) Cn1c(=O)n(-c2ccc(F)c(Cl)c2)c(=O)c2sc3ccccc3c21
77) CCOC(=O)c1sc2nc(CN3CCCCC3)nc(N3CCCC3)c2c1C
78) CC(Sc1nnc(N)s1)C(=O)NCCC1=CCCCC1 (stereo unspecified)
79) CCC1(O)CC(C)N(C)CC1C (stereo unspecified)
80) CCCCN(C)S(=O)(=O)c1ccc2c(c1)CCN2C(=O)CCC(=O)N1CCCC1
assay / entry,73,74,75,76,77,78,79,80
GIV Gai3 FP,97,103,94&109,103,nt,nt,93,106
Sa growth 42C,99,107,108,109,98,82,96,nt
Sa growth 42C second temp,79,87,91,87,101,89,88,nt
HCMV UL50-53 inh,nt,-45,-12&-9,-30,-37,1,-10,3

81) O=C(Nc1ccc(F)cc1)c1cc(=O)[nH]c2ccccc12
82) Cc1ccc2c(c1)=C(c1sc(N)nc1O)C(=O)N=2
83) COc1ccc(C2c3c(oc4ccc(C)cc4c3=O)C(=O)N2CCCN2CCOCC2)cc1OC (stereo unspecified)
84) COc1ccc(NC(=O)CN2C(=O)C(C)(C)c3cc(S(=O)(=O)N4CCCC4)ccc32)cc1
85) Cc1cccc(-n2ncc(C(=O)N3CCC(C)CC3)c2C2CCN(C(=O)OC(C)(C)C)CC2)c1
86) O=C(NCCN1CCOCC1)c1c(O)nc2ccccn2c1=O
87) CC(C)C(=O)NCCCc1nc2ccccc2n1C
assay / entry,81,82,83,84,85,86,87
GIV Gai3 FP,102,100,100,103,107,102,102&104
Sa growth 42C,97,145,114,nt,100,95,94
Sa growth 42C second temp,99,98,92,nt,99,84,86
HCMV UL50-53 inh,11,-25,nt,-18,nt,-10,-9
